High-throughput results from PubChem.
KCNQ2 enhance – enhances the rat KCNQ2 potassium channel; CHO-K1 KCNQ2, FluxOR thallium flux fluorescence; active compounds read high; B-score at 10 µM; 0.54% of 310,000 active;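 active means fluorescence ratio B-score at least 3 SD of library B-scores, with initial fluorescence B-score within 3 SD, cut at about 5.3 in these data; same plate scores as AID 2156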;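 further: B-score of peak minus minimum over baseline fluorescence ratio after K+ and Tl+ stimulus; positive B-score means potentiation of KCNQ2 with more thallium influx and brighter signal; only the inactives scoring about 0 or higher are listed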
Target sequence (O88943 whole entry, looked up): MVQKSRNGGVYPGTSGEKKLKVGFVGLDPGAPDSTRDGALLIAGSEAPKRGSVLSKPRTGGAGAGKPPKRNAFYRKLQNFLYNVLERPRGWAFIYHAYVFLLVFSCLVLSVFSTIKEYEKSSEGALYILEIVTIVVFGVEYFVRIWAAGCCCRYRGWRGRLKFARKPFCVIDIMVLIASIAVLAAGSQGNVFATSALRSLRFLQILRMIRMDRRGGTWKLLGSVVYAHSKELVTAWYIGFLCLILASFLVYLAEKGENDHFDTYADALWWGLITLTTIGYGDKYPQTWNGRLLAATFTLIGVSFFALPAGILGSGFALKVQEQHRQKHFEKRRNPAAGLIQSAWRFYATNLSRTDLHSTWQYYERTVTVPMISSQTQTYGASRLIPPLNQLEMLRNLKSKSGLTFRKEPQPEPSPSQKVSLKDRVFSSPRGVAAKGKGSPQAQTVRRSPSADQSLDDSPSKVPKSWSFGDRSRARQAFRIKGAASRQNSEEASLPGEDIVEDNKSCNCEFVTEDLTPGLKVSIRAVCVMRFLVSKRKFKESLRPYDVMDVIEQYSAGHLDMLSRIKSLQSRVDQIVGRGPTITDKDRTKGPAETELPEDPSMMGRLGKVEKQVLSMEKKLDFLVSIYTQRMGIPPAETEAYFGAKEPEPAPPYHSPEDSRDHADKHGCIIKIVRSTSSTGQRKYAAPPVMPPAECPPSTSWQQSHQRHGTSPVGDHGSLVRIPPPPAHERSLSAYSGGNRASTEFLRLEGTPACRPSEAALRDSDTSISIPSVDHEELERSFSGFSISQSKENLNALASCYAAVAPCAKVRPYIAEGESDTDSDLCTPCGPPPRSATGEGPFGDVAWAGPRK
KCNQ2 enhance baseline – recorded beside KCNQ2 enhance, whose call it bears; B-score; compound at 10 µM; measured here: initial fluorescence intensity artifact check;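 brightness before thallium and not channel activity; 0 = typical well and far values either way flag optical interference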
Starred values were filed as active, the others as inactive. These rows are one share of the data. The share of hits here may be higher or lower than overall.

structure	KCNQ2 enhance	KCNQ2 enhance baseline
COc1ccccc1N(CC(=O)N1CCC(C(N)=O)CC1)S(=O)(=O)c1ccccc1	2.8	0.11
O=C(Cc1ccccc1)Nc1ccc(Br)c(Cl)c1	0.92	-2.8
CC(=O)NC(=S)Nc1ccc(NC(=S)NC(=O)c2cccs2)cc1	1.9	-1.6
CCOC(=O)c1c(C)n(C)c2c(C)cc(O)c(OC(=O)CC)c12	2	0
O=C(CSc1ccccc1)NC1CCCCCCC1	0.68	0.87
CN(C)N1C(N)=C(C#N)C(c2cccs2)C2=C1CC(C)(C)CC2=O (centres undefined)	0.45	-2.9
O=C(NCc1cccs1)c1ccccc1[N+](=O)[O-]	1.3	-0.03
Cc1ccc(-c2csc3ncn(CC(N)=O)c(=O)c23)cc1C	0.01	2.3
COc1cc2cc(Oc3ccc4ccc(=O)oc4c3)c(=O)oc2cc1OC(=O)/C=C/c1ccccc1	0.98	0.26
CN(C)C(=O)N1CCC(C(=O)NCc2ccccc2)CC1	0.5	-2
COc1ccccc1OCCNC(=O)CSC(=S)N1CCCC1	0.03	-0.54
Cc1cc(Cl)c(OCCCCN2CCOCC2)c(Br)c1	0.02	-1.4
Cc1nc(Nc2nc(CSc3nc4ccccc4[nH]3)cc(=O)[nH]2)nc2ccccc12	0.66	-0.69
CC(=O)N1N=C(c2cccs2)CC1c1cc2cc(C)ccc2nc1Cl (centres undefined)	1.1	0
O=C(O)CCC(=O)N1CC=C(c2ccccc2)CC1	2.3	-1.4

Carrying on:
structure	KCNQ2 enhance	KCNQ2 enhance baseline
COc1ccc(NS(=O)(=O)c2cccc(C(=O)NNC(=O)COc3ccccc3)c2)cc1	2.6	-2.1
Cc1cccc(C)c1CC(=O)N1CCOCC1	0.13	0.27
Cc1ccnc(NC(=O)c2ccc(COc3ccc(Cl)cc3)o2)c1	3.2	0.15
CN(Cc1ccccc1)C(=O)CCS(=O)(=O)c1ccc2c(c1)NC(=O)CS2	0.87	0.95
COc1ccc(OC)c(NC(=O)C2CCN(C(=O)c3cccs3)CC2)c1	1.5	-1.8
CCC1=C(OC(=O)N(CC)CC)N2C(=O)OC(=NCCOC)[C@]2(Cc2ccccc2)[C@H]2C1=CC[C@H]1C(=O)N(C)C(=O)[C@H]12	0.17	1.8
O=C(Nc1cccc2ccccc12)C1CCN(C(=O)Cc2ccccc2)CC1	0.64	-0.18
CCOC(=O)c1ccc(N2C(=O)CC(C(=O)OC)=C2C)cc1	1.4	1.2
CCn1c(CCNC(=O)c2cccs2)nnc1SCC(=O)Nc1ccc(Cl)cc1	0.67	-0.39
O=C1CC(C(=O)Nc2cccc(Cl)c2)n2ncnc2N1 (centres undefined)	0.12	4.4
COc1ccccc1CNCC(=O)Nc1ccc(C#N)cc1	2.1	0.21
Cc1ccc(OCCC(=O)OCC(=O)N2c3ccccc3CC2C)cc1 (centres undefined)	0.79	-0.98
CC(=O)c1cccc(CN2CCC(n3nccc3NC(=O)CCc3ccccc3)CC2)c1	1.1	0.41
COCC(C)N=Cc1c(O)[nH]c2ccccc12 (centres undefined)	1.1	-1.4
CCOc1ccc(C(=O)NC(=S)Nc2ccccn2)cc1[N+](=O)[O-]	2.4	-0.03

Given with values ahead of the structure: part of the list above.
KCNQ2 enhance | KCNQ2 enhance baseline | structure
2.6 | -2.1 | COc1ccc(NS(=O)(=O)c2cccc(C(=O)NNC(=O)COc3ccccc3)c2)cc1
0.13 | 0.27 | Cc1cccc(C)c1CC(=O)N1CCOCC1
3.2 | 0.15 | Cc1ccnc(NC(=O)c2ccc(COc3ccc(Cl)cc3)o2)c1
0.87 | 0.95 | CN(Cc1ccccc1)C(=O)CCS(=O)(=O)c1ccc2c(c1)NC(=O)CS2
1.5 | -1.8 | COc1ccc(OC)c(NC(=O)C2CCN(C(=O)c3cccs3)CC2)c1
0.17 | 1.8 | CCC1=C(OC(=O)N(CC)CC)N2C(=O)OC(=NCCOC)[C@]2(Cc2ccccc2)[C@H]2C1=CC[C@H]1C(=O)N(C)C(=O)[C@H]12

(listing goes on)
structure	KCNQ2 enhance	KCNQ2 enhance baseline
Cc1cc(C(F)F)n2nc(C(=O)Nc3sc4c(c3C#N)CCC(C)C4)nc2n1 (centres undefined)	0.59	-2.3
O=S(=O)(c1ccc(Br)cc1)N1CCC(c2nc3ccccc3[nH]2)CC1	0.49	-0.84
Cc1ccc(C)c(NC(=O)CCc2c(C)nn(-c3ccc(N4CCCCC4)nn3)c2C)c1	0.28	-0.18
Cn1cnnc1SCC(=O)c1ccc2c(c1)OCO2	0.95	-2.3
CC(=O)C1=NOC(CNc2ncc(C(F)(F)F)cc2Cl)C1 (centres undefined)	0.78	0.07
CCOC(=O)CSc1[nH]c2cc(OC)ccc2c1[N+](=O)[O-]	0.03	2
CCN(CC)S(=O)(=O)c1cccc(C(=O)N[C@H](C(=O)Nc2nc3ccc(F)cc3s2)C(C)C)c1	1.3	-2.8
COc1ccc2c(c1)[nH]c(=O)c1sc3ccccc3c12	0.96	0.05
Cc1nc2c(C(=O)N3CCCCC3)cnn2c(C)c1Cc1ccccc1F	1.3	-0.69
Cc1nc(-c2nc(CC(=O)NNC(=O)c3ccc(Cl)cc3)cs2)cs1	0.17	1
CC(C)C(=O)Nc1nnc(S(=O)(=O)N2CCCc3ccccc32)s1	0.03	0.5
CCOC(=O)Cn1nc(-c2ccccc2)c2ccccc2c1=O	0.13	0.02
O=[N+]([O-])c1ccc(S(=O)(=O)Nc2ccc(-c3ccc(N4CCOCC4)nn3)cc2)cc1	0.12	0.65
O=C(CC1SCCNC1=O)Nc1cccc(C(F)(F)F)c1 (centres undefined)	0.29	1.5
CCC(C)(C(=O)NC1CCCC1)N(C(=O)CNC(C)=O)c1ccc(C)cc1 (centres undefined)	1.1	0.09

Next section:
structure	KCNQ2 enhance	KCNQ2 enhance baseline
CN(CC(=O)N1CC(=O)N(CCc2ccccc2)C(=O)C1)S(=O)(=O)c1cccc2nsnc12	0.54	0.01
COc1ccccc1NC(=O)c1ccc(-c2ccc(Br)cc2)o1	0.35	-0.15
COc1cc(NC(=O)c2cc3c(=O)n(C)c4ccccc4c3n2C)cc(OC)c1OC	1.4	0.7
O=C(CCC(=O)OCC(=O)c1cccc([N+](=O)[O-])c1)Nc1ccccc1Cl	0.73	2.6
c1cc(-c2nsc(-c3ccncc3)n2)ccn1	0.2	1
COc1cc(S(=O)(=O)N(Cc2cccnc2)Cc2cccc(OC)c2OC)ccc1-n1cnnn1	0.04	0.48
CCc1ccc2c(c1)/C(=N/OC)C(=O)N2	2.8	-0.96
Cc1ccc(/C=c2\sc3nc(-c4ccccc4Br)nn3c2=O)o1	0.26	0.65
NS(=O)(=O)c1ccc(CCNC(=O)c2ccc(C(=O)c3ccccc3)cc2)cc1	0.02	-1.4
O=C(C1CCC(CNS(=O)(=O)c2ccccc2)CC1)N1CCCCC1 (centres undefined)	2	0.02
Cc1cc(OCC(=O)c2ccc(F)cc2)ccc1N1C(=O)CCC1=O	0.59	0.09
COc1cccc(NS(=O)(=O)c2ccc3c(c2)NC(=O)C(C)C(=O)N3)c1 (centres undefined)	1	0.84
COc1ccccc1CN1CCSCC1	0.01	0.03
Cc1ccccc1NC(=O)Cc1cn(C)c2ccccc12	0.11	0.06
COc1ccccc1-c1ccc2nnc(SCC(=O)N3CCCC3)n2n1	0.67	0.7

Next records
structure	KCNQ2 enhance	KCNQ2 enhance baseline
O=C(O)/C=C\C(=O)Nc1cccc(C(=O)Nc2cccc(O)c2)c1	1	-0.92
CC(C)(/C=N/O)/[N+]([O-])=C/c1ccccc1C(F)(F)F	1.5	1
COc1ccc(C(=O)/C=C/C(=O)N(CC(=O)NC2CCCCC2)Cc2ccc(F)cc2)c(O)c1	0.58	-1.5
COCCn1c(SCC(=O)Nc2cc(C)on2)nnc1C(C)C	1.6	2.6
CC(Oc1ccc(S(=O)(=O)N2CCCC2)cc1[N+](=O)[O-])C(=O)N(C)c1ccccc1 (centres undefined)	0.03	2.2
Cc1ccc(CNC(=O)c2ccc(CS(=O)(=O)c3ccccc3)o2)cc1	0.37	3.4
CC(C)(C)SCCNC(=O)Nc1ccccc1	0.01	0.36
COc1cc(/C=N/NC(=O)c2ccc(-n3cccc3)cc2)ccc1O	0.26	0.07
CC1(C)Cc2c(sc(NC(=O)C(=O)N3CCOCC3)c2C#N)CO1	0.3	-0.5
O=C(CSc1n[nH]c(=O)n1C1CC1)N1N=C(c2ccc(Cl)cc2)CC1c1ccco1 (centres undefined)	1.8	-0.5
O=C(Nc1cccc(Cl)c1)Nc1cc(S(=O)(=O)N2CCOCC2)ccc1N1CCCC1	0.25	-2.3
CCOC(=O)N1CCC(NC(=O)CCS(=O)(=O)c2ccc3c(c2)CCN3C(=O)CC)CC1	1.2	0.24
Cn1c(-c2ccccc2)cccc1=O	0.08	-1.5
CCOc1ccc(Cn2nnc(C(=O)NCc3ccc(OC)cc3)c2N)cc1	0.26	-0.34
CCS(=O)(=O)Nc1c(C(=O)OC)[nH]c2ccccc12	1.3	-1.1

Reprinted from the part before: 2 compounds, then new ones.
compound	KCNQ2 enhance	KCNQ2 enhance baseline
CCOc1ccc(Cn2nnc(C(=O)NCc3ccc(OC)cc3)c2N)cc1	0.26	-0.34
CCS(=O)(=O)Nc1c(C(=O)OC)[nH]c2ccccc12	1.3	-1.1
O=C(CCCN1C(=O)CSc2ncccc21)N1CCN(c2cccc(C(F)(F)F)c2)CC1	1.1	0.99
COC(C/C=C\[C@H](O)[C@H](C)OCc1ccccc1)OC	2	-0.01
O=c1c2ccccc2c(C=Nc2ccccc2O)c(O)n1-c1nccs1	1.9	-1.5
CC(=O)Nc1ccc(S(=O)(=O)N2CCSCC2)cc1	0.21	-0.04
Nc1c(-c2cccc(Cl)c2)cnn1-c1cccc(C(F)(F)F)c1	2.4	0.84
CCCCn1c(CCNC(=O)c2ccco2)nc2ccccc21	0.97	-1.3
CCn1cc(C(=O)OCc2ccccc2)c(=O)c2ccc(C)nc21	0.63	0.07
CCOC(=O)N1CCN(C(=O)c2ccc3c(=O)n(-c4ccc(OC)cc4)c(=S)[nH]c3c2)CC1	0.95	-0.36
O=C(COC(=O)c1ccc2ncsc2c1)NC(=O)c1ccccc1	1	-1.4
COC(=O)c1nn(-c2ccc3c(c2)OCO3)cc1O	1.8	-0.48
COc1ccc(CN(C)C(=O)c2cccc(NS(=O)(=O)c3ccccc3)c2)cc1F	0.66	1.2
O=C(NCCc1ccccc1)C(c1ccncc1)N(C(=O)c1csnn1)C1CC1 (centres undefined)	1.3	-0.5
Cc1ccc(C(=O)COC(=O)CCC(=O)Nc2cccc(Cl)c2)cc1[N+](=O)[O-]	1	-2.3
Cc1csc(NC(=O)c2cc(-c3ccco3)nc3ccccc23)n1	0.14	-1.8
O=C(c1cccs1)N1N=C(c2ccc(O)cc2)CC1c1ccccc1 (centres undefined)	0.39	0.22
COc1ccc(C(=O)c2ccc(OC)c(OC)c2)cc1OC	1.8	0.06
COc1cc(/C=C2\SC(=S)N(N3CCOCC3)C2=O)cc(OC)c1OC	0.28	-0.65
CC1CN(C(=O)C2CCCC2)C(C)CN1C(=O)C1CCCC1 (centres undefined)	1.1	-2.3
CCOc1ccc(NC(=O)CSc2nc3[nH]ncc3c(=O)n2-c2ccccc2OC)cc1	0.25	-1.5
COC(=O)c1ccc(Sc2ccc(Cl)cc2)c(N)c1	0.36	0.79
Cc1ccc(NC(=O)c2nc[nH]c2C(=O)N2CCC(C)CC2)cc1	0.98	0.84
CCc1ccc(NC(=O)C2CCN(S(=O)(=O)c3c(C)noc3/C=C/N(C)C)CC2)cc1	0.74	0.71
COc1ccc(S(=O)(=O)N2CCC(C(=O)N3CCCCC3)CC2)cc1	1.2	-1.7
COc1ccc(Cl)cc1S(=O)(=O)N1CCCC(C(=O)NCCc2ccccc2)C1 (centres undefined)	0.03	-4.4
COc1ccc(CCNC(=O)C2CCCN(S(C)(=O)=O)C2)cc1OC (centres undefined)	0.57	0.23
CNC(=O)C1C2C=CC3(O2)C1C(=O)N(C1CC1)C3C(=O)NCc1ccc(OC)cc1 (centres undefined)	1.2	-0.99
Cc1c(C(=O)N2CCCCC2)sc(NC(=O)C(C)C)c1C#N	0.38	-0.94
Cn1c(SCC(=O)c2ccccc2)nnc1-c1ccccn1	0.46	0.94
Cc1ccc(C(=O)CSc2nnc(C)s2)cc1	0.26	1.4
CCc1c(C)nc2ncnn2c1N1CCC(C(=O)NCc2cccs2)CC1	0.35	-0.55

Copied from the list:
Value for `CCOc1ccc(NC(=O)CSc2nc3[nH]ncc3c(=O)n2-c2ccccc2OC)cc1` in KCNQ2 enhance: 0.25
Value for `COc1ccc(CN(C)C(=O)c2cccc(NS(=O)(=O)c3ccccc3)c2)cc1F` in KCNQ2 enhance baseline: 1.2

New compounds follow
compound	KCNQ2 enhance	KCNQ2 enhance baseline
CC(C)NC(=O)NC(=O)COC(=O)C1(C)CC1(Cl)Cl (centres undefined)	1.2	-1.1
COc1cccc(/C=N/n2nnnc2N)c1	0.25	-2.2
CCNC(=S)N1CCC(C(=O)c2ccc3c(c2)OCCO3)CC1	1.6	-0.13
CCOc1ccc(N2CC(C(=O)Nc3cccc(C)c3C)CC2=O)cc1 (centres undefined)	0.85	0
O=C(CC(=O)c1ccccc1O)c1ccc(F)cc1	1.4	0.73
COc1ccc(S(=O)(=O)N(C)c2ccc(C(=O)Nc3cccnc3)cc2)cc1OC	2.8	-0.46
CCCCOCCCNC(=O)CC(C)c1ccccc1 (centres undefined)	0.44	0.01
C/C(CCc1ccccc1)=N/NC(=O)C(=O)NCc1ccccc1	0.11	1.2
O=C(Cn1c(=O)oc2ccccc21)Nc1ccccc1C(F)(F)F	0.4	-0.3
COc1ccccc1NC(=O)CN(C)S(=O)(=O)c1ccc2c(c1)CCC(=O)N2	1.9	0.79
COc1cccc(C(=O)NNC(=O)c2ccccc2-n2cccc2)c1	0.03	1.8
COC(=O)CNC(=O)CN1C(=O)N(c2ccc(Cl)cc2)C(N(O)C(=O)Nc2ccc(Cl)cc2)C1(C)C (centres undefined)	0.21	2.5
